Rango-impB inh – qHTS Assay for Inhibitors of Rango (Ran-regulated importin-beta cargo) - Importin beta complex formation. Rango CFP/YFP FRET sensor + importin beta, 45 min. AID 540263, 2011. Importin subunit beta-1 (Homo sapiens), Q14974. Potency, µM (top dose mostly 92.2 µM), without a hit: at the top dose inhibition of complex formation. 340,000 compounds, 0.031% hits; active = rising FRET ratio curve, often small or poorly fitted; inconclusive = mostly compound fluorescence or quenching in the first reads; inactive = flat curves in all reads;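 note: potency is the fitted concentration of half-maximal effect; 0% = DMSO wells and 100% = buffer wells lacking importin beta; nearly all actives have a fitted effect of over 15% in size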
Target sequence (Q14974 whole entry, looked up): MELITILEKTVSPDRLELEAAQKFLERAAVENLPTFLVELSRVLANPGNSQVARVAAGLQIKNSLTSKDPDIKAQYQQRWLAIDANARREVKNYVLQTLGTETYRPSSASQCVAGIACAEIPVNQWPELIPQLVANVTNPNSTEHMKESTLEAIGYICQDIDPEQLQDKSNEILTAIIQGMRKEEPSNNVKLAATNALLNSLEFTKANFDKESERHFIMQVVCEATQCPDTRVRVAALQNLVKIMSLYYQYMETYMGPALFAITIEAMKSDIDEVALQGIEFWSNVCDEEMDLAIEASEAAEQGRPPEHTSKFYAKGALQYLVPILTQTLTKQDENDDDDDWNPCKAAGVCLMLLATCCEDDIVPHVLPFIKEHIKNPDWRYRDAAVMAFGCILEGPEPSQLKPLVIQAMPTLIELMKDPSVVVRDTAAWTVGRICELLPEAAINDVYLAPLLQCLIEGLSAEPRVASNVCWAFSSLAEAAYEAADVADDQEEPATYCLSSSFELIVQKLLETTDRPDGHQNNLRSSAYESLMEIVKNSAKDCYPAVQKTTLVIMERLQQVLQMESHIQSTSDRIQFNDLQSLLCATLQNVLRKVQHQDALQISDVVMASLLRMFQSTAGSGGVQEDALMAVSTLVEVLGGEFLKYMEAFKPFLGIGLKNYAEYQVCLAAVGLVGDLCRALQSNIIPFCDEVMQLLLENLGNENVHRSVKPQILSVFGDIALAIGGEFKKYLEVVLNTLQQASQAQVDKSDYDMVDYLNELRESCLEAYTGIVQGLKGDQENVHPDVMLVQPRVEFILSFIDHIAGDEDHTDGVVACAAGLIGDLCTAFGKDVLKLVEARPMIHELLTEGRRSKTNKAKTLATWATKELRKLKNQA
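Inhibition scored from the CFP 486 nm/YFP 530 nm FRET ratio 45 min after adding 0.125 microM importin beta to 50 nM Rango biosensor preincubated 5 min with compound (room temperature, PBS with DTT, Tween-20, BSA). No-importin wells as positive control.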
GLA inh pH 4.5 – qHTS Assay for Inhibitors of Human alpha-Galactosidase at pH 4.5; purified enzyme, 4-MU-alpha-Gal fluorescence, pH 4.5; activity change, negative = inhibition, % at 105 µM; 230,000 tested, under 10 active; AID 1467, 2008; inconclusive = small, poorly fitted or top-dose-only inhibition, or a rising curve; inactive = flat fitted curve, though single readings scatter; no compound was filed as active;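 note: 0% = full activity with enzyme and -100% = basal without enzyme; dose as in the result columns while the protocol names 77 µM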
Rango dissoc inh – qHTS Assay for Inhibitors of RanGTP induced Rango (Ran-regulated importin-beta cargo) - Importin beta complex dissociation. Potency, µM (doses to about 46.1 µM), for inactives: top-dose activity change, negative = inhibition. Biochemical FRET Rango-importin beta, RanGTP-induced dissociation. 340,000 compounds, 0.071% hits. Snurportin-1 (Homo sapiens) + GTP-binding nuclear protein Ran (Homo sapiens) + Importin …. AID 540253, 2011; active means falling FRET ratio curve, often poorly fitted, with flat reads before Ran was added; inconclusive means other falling curves, or compound fluorescence or quenching; inactive means flat or rising ratio curve;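 note: potency is the fitted concentration of half-maximal effect; % of control where 0% means no effect; nearly all actives have a fitted effect of over 45% in size; -100% = wells without RanGTP and RCC1; the record marks most hits as doubtful in a second field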
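Rango (0.1 uM)–importin beta (0.25 uM) complex; RanGTP-RCC1 trigger; 45 min RT; CFP/YFP FRET read.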
miR-21 reporter – qHTS Assay for Modulators of miRNAs and/orActivators of miR-21. HeLa miR-21 FLuc reporter, luciferase, 48 h. Potency, µM (top dose mostly 38.3 µM), without a hit: at the top dose reporter change, positive = more light. 340,000 tested, under 10 active; active = well fitted rising curve with a large enough effect; inconclusive = small, poorly fitted or top-dose-only effect; inactive = no such curve, though single readings can be large or run the other way;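 note: % of control where 0% means no effect; miR-21 action dims this reporter so a rising signal means less miR-21 action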
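HeLa miR-21-FLuc reporter line, endogenous miR-21; 2000 cells/well in DMEM/10% FBS; compound titration up to ~40uM final, 48 h, 37 degree Celsius; luciferase detection reagent, 15 min lysis, CCD luminescence.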
* marks the source's active call; other numbers are inactive results; ? = inconclusive; . = not tested or not shown; & = joins results of further samples; [ ] = remark or other dose. The list is partial; count on the stated rates, not on these rows.

item | SMILES | Rango-impB inh | GLA inh pH 4.5 | Rango dissoc inh | miR-21 reporter
1 | CC(c1ccccc1)n1c(S(=O)(=O)O)nc2ccccc21 (configuration not stated) | 0.9% | 0 | -2% | -6%
2 | COC(=O)c1ccc(Cl)c(NC(=O)CN2CCN(C)CC2)c1 | -0.1% | 5 | 9% | -1%
3 | O=C(OCC(=O)N1CCCC1)c1ccc(NS(=O)(=O)c2cccs2)cc1O | 5.8% | -1 | 13% | -10%
4 | CCC(C)NC(=O)CCCc1ccccc1 (configuration not stated) | 0.6% | -16 | 3% | -27%
5 | COc1cc2cc(Oc3ccc4ccc(=O)oc4c3)c(=O)oc2cc1OC(=O)/C=C/c1ccccc1 | -8.2% | 0 | -6% | 2%
6 | Cc1ccc(-c2csc3ncn(CC(N)=O)c(=O)c23)cc1C | -0.6% | . | -1% | -7%
7 | CC(=O)c1ccc(NC(=O)CSc2nnc(NC(=O)CN3CCOCC3)s2)cc1 | -0.6% | 2 | 0% | -32%
8 | CN(C)C(=O)N1CCC(C(=O)NCc2ccccc2)CC1 | 6.2% | -13 | 1% | 3%
9 | CCCSc1nnc(CNC(=O)C23CC4CC(CC(C4)C2)C3)n1Cc1ccccc1 | 1.5% | -13 | 7% | 0%
10 | O=[N+]([O-])c1cc(/C=N/Nc2nc(N3CCCCC3)nc(N3CCCCC3)n2)ccc1O | 3.5% | -5 | 22% | -9%
11 | COc1ccc(C(=O)NCCONC(=O)c2ccc(OC)cc2)cc1 | -0.1% | . | -7% | -4%
12 | COc1ccc(CCNC(=O)c2ccc(S(=O)(=O)N(C)c3ccccc3)cc2)cc1OC | -1.9% | . | 0% | 8%
13 | COC(=O)[C@]1(C)N[C@H](CN(C)C(=O)COc2ccccc2)[C@@H]2C(=O)N(C)C(=O)[C@@H]21 | -0.9% | . | -18% | .
14 | CCc1ccc(N2C(=O)C(Cl)=C(N3CCCCCC3)C2=O)cc1 | 3.0% | . | -3% | -9%
15 | CN(C)N1C(N)=C(C#N)C(c2cccs2)C2=C1CC(C)(C)CC2=O (configuration not stated) | -3.9% | -19[21.1 µM] | 0% | 0%
16 | COc1ccccc1NC(=O)CCc1nc2sc3c(c2c(=O)[nH]1)CCCC3 | ? | . | -31% | .
17 | O=C(NCc1cccs1)c1ccccc1[N+](=O)[O-] | 0.0% | -7 | -18% | -1%
18 | O=C(CSc1ncccn1)NC(=O)NCc1ccco1 | -3.1% | 5 | -1% | 0%
19 | NS(=O)(=O)c1ccc(NC(=O)COC(=O)CCc2nc3ccccc3c(=O)[nH]2)cc1 | 2.8% | . | 13% | .
20 | CCOC(=O)c1c(C)n(C)c2c(C)cc(O)c(OC(=O)CC)c12 | 4.1% | 3 | -12% | 0%
21 | CC(=O)Nc1ccc2c(CN3C(=O)NC(C)(c4ccc(C)cc4)C3=O)cc(=O)oc2c1 (configuration not stated) | ? | 6 | -12% | -26%
22 | O=C(CSc1ccccc1)NC1CCCCCCC1 | -2.6% | . | 23% | -57%
23 | CC1=C(C(=O)OCc2ccccc2)C(c2ccc([N+](=O)[O-])cc2)NC(=O)N1C (configuration not stated) | -1.0% | . | -15% | 4%
24 | CC(C)CNC(=O)c1cccc(NC(=O)c2ccc3c(c2)C(=O)N(C)C3=O)c1 | -0.3% | . | -12% | -1%
25 | Cn1c2ccccc2c2cc(/C=C(\NC(=O)c3ccccc3)C(=O)NCC(=O)O)ccc21 | ? | 2 | ? | -1%
26 | O=C(CSc1nnc(-c2ccc(F)cc2)c2ccccc12)Nc1cccc(Cl)c1 | 2.4% | 5 | 25% | -12%
27 | CC1Cc2ccccc2N1CC(=O)NC(=O)NCc1ccccc1 (configuration not stated) | 1.4% | -11 | -14% | -6%
28 | CSc1ncccc1C(=O)N1CCCC(C(=O)c2cc(F)ccc2F)C1 (configuration not stated) | 0.6% | -8 | ? | -8%
29 | c1ccc(-c2ccc(OCCCNC3CCCC3)cc2)cc1 | 3.4% | -11 | 9% | 5%
30 | Cc1c(N(C(=O)c2cc(=O)[nH]c3ccccc23)C(C)C)c(=O)n(-c2ccccc2)n1C | -4.1% | 4 | 4% | -3%

The last six records of the part before open the next one:
item | SMILES | Rango-impB inh | GLA inh pH 4.5 | Rango dissoc inh | miR-21 reporter
25 | Cn1c2ccccc2c2cc(/C=C(\NC(=O)c3ccccc3)C(=O)NCC(=O)O)ccc21 | ? | 2 | ? | -1%
26 | O=C(CSc1nnc(-c2ccc(F)cc2)c2ccccc12)Nc1cccc(Cl)c1 | 2.4% | 5 | 25% | -12%
27 | CC1Cc2ccccc2N1CC(=O)NC(=O)NCc1ccccc1 (configuration not stated) | 1.4% | -11 | -14% | -6%
28 | CSc1ncccc1C(=O)N1CCCC(C(=O)c2cc(F)ccc2F)C1 (configuration not stated) | 0.6% | -8 | ? | -8%
29 | c1ccc(-c2ccc(OCCCNC3CCCC3)cc2)cc1 | 3.4% | -11 | 9% | 5%
30 | Cc1c(N(C(=O)c2cc(=O)[nH]c3ccccc23)C(C)C)c(=O)n(-c2ccccc2)n1C | -4.1% | 4 | 4% | -3%
31 | Cc1ccc(NC(=O)Nc2ccc(F)c(Cl)c2)cc1 | -0.8% | 2 | 1% | -2%
32 | Cc1cc(C)c(NC(=O)COc2ccccc2C(=O)Nc2ccc3c(c2)oc2ccccc23)c(C)c1 | 4.0% | 6 | 5% | -9%
33 | CC1(C)CC(NC(=O)c2ccc(Cl)cc2)CC(C)(C)N1 | -3.0% | . | 6% | -9%
34 | COc1ccc(C(Nc2ccccn2)c2c(NC(=O)c3ccco3)sc(C)c2C)cc1OC (configuration not stated) | -0.5% | -4 | 7% | -58%
35 | CCc1nc2nc(C)c(NS(=O)(=O)c3ccc(Cl)cc3)c(=O)n2[nH]1 | 6.5% | . | -12% | 3%
36 | Cc1c(NC(=O)c2cccc(NC(=O)Cc3ccc(Cl)cc3)c2)c(=O)n(-c2ccccc2)n1C | 0.9% | . | -1% | .
37 | COC(=O)c1ccccc1NC(=S)NC(=O)c1ccccc1F | -0.3% | -8 | 21% | -22%
38 | Cn1nc(-c2ccc(C(=O)Nc3ccc(F)cc3)cc2)c2ccccc2c1=O | -3.7% | -2 | 1% | -1%&-1%
39 | COc1ccccc1CN(C)C(=O)C1COc2ccccc2O1 (configuration not stated) | -0.4% | 10 | -2% | -13%
40 | COc1ccc(S(=O)(=O)N2CCC(C(=O)NCCN3CCOCC3)CC2)cc1 | 3.8% | . | -11% | 2%
41 | COc1ccc(-n2c(N)c(C(=O)NCc3ccco3)sc2=S)cc1 | 6.4% | -6 | 12% | -3%
42 | Cc1cc(-c2ccccc2)c2c(=O)[nH][nH]c2n1 | 1.0% | -20 | 5% | -4%
43 | CN(C)S(=O)(=O)c1ccc(Cl)c(NC(=O)COC(=O)c2ccc(O)cc2)c1 | -1.0% | 3 | -8% | 0%
44 | COc1ccc(OC)c(NC(=O)C2CCCCC2)c1 | 2.2% | -3 | 6% | -3%
45 | COCC1CCN(Cc2cn(C)nc2-c2cccc(Cl)c2)C1 (configuration not stated) | -2.0% | 2 | -15% | 1%
46 | Cc1cc(C(=O)Nc2cnc3ccccc3c2)ccc1[N+](=O)[O-] | 1.9% | -1 | 10% | -71%
47 | CCOC(=O)c1cc(C(=O)NCc2ccc(Cl)cc2Cl)nn1C | 0.5% | 0 | 14% | -23%
48 | CCN(CC)S(=O)(=O)c1ccc(N2CCOCC2)c(NC(=O)COc2ccccc2C#N)c1 | 4.8% | -3 | 10% | 0%
49 | Cc1ccc(OCCNC(=O)c2ccc(NC(=O)CC3SC(N4CCCC4)=NC3=O)cc2)cc1 (configuration not stated) | -0.6% | . | 6% | .
50 | CSC1=NCCN1C(=O)c1ccc(S(=O)(=O)N2CCCC2)cc1 | 3.2% | -3 | -11% | 0%
51 | CCOc1ccc(NC(=O)CN(C)C(=O)c2c(-c3ccccc3Cl)noc2C)cc1OCC | -0.7% | . | 5% | .
52 | c1ccc(Cn2nnnc2C(c2cccnc2)N2CCN(C3CCCCC3)CC2)cc1 (configuration not stated) | 0.0% | -2 | 7% | 17%
53 | CCCCN(C(=O)CSc1nncn1-c1ccccc1OC)c1c(N)n(Cc2ccccc2)c(=O)[nH]c1=O | 0.0% | -15 | -5% | -2%
54 | Oc1cccc(C(=S)N2CCN(Cc3ccccc3)CC2)c1 | 2.2% | 6 | -12% | -9%
55 | O=c1cc(CNc2cc(C(F)(F)F)cc(C(F)(F)F)c2)nc2sccn12 | 3.2% | -1 | 21% | 18%
56 | CC1=C(SCCC#N)S/C(=C2\SC(C)=C(SCCC#N)S2)S1 | 2.1% | 0 | -12% | -11%
57 | CCc1nc(N[C@H](C(=O)O)C(C)C)c2oc3ccccc3c2n1 | 0.8% | 6 | -2% | 3%
58 | COCCNC(=O)c1ccc(N2CC3CC(C2)c2cccc(=O)n2C3)c(NC(=O)c2ccc(F)cc2)c1 (configuration not stated) | 6.6% | . | 18% | -6%
59 | O=C(Nc1ccccc1)N(Cc1ccccc1)Cc1ccccc1 | -5.9% | 10 | 1% | -8%
60 | Cc1cc(=O)[nH]c(SCC(=O)c2ccc(C(C)C)cc2)n1 | 0.4% | 6 | 2% | -45%
61 | COC(=O)c1cc(Nc2cc(C)c3c(O)cccc3n2)cc(C(=O)OC)c1 | 1.3% | -20 | 2% | 7%
62 | CC(=O)N1CCc2cc(S(=O)(=O)CCC(=O)NCc3ccc4c(c3)OCO4)ccc21 | 5.2% | -5 | 8% | -21%
63 | COc1c2ccoc2c(OC(C)=O)c2oc(C)cc(=O)c12 | 0.2% | . | 5% | 8%
64 | CC1CN(C(=O)CCC(=O)NCCCN2CCN(Cc3ccccc3)CC2)c2cc(Cl)ccc2O1 (configuration not stated) | 1.1% | . | -6% | 1%
65 | CC(=O)Nc1cccc(NC(=O)CS(=O)(=O)c2cn(CC(=O)N(C(C)C)C(C)C)c3ccccc23)c1 | 5.5% | . | 14% | 1%
66 | Cc1nc2c(C(=O)N3CCCCC3)cnn2c(C)c1Cc1ccccc1F | -0.8% | 2 | 1% | -32%
67 | CC(=O)c1ccccc1NC(=O)COC(=O)CCC1CCCC1 | 3.5% | . | -1% | .
68 | CCOc1ccc(C(=O)Nc2cc(S(=O)(=O)Nc3ccccc3Cl)ccc2N2CCOCC2)cc1 | 3.6% | -4 | 13% | -5%
69 | CC1CC(C)CN(C(=O)c2ccc(N3CC4CC(C3)c3cccc(=O)n3C4)c([N+](=O)[O-])c2)C1 (configuration not stated) | -1.6% | -6 | -6% | -16%
70 | CCOC(=O)CSc1[nH]c2cc(OC)ccc2c1[N+](=O)[O-] | ? | 5 | -7% | -1%
71 | O=C(N[C@@H]1C/C=C\C[C@H](CC(=O)N(CCO)Cc2ccccc2)C(=O)N[C@@H](Cc2c[nH]c3ccccc23)COC1=O)OCC1c2ccccc2-c2ccccc21 | -2.7% | . | -6% | .
72 | CCN(CC)S(=O)(=O)c1cccc(C(=O)N[C@H](C(=O)Nc2nc3ccc(F)cc3s2)C(C)C)c1 | -2.0% | -16 | 6% | 13%
73 | COc1ccc(NC(=O)CNc2cccc(S(=O)(=O)N3CCCCCC3)c2)c([N+](=O)[O-])c1 | 3.9% | . | 8% | .
74 | COc1ccc2c(c1)[nH]c(=O)c1sc3ccccc3c12 | -1.8% | -6 | 9% | 7%
75 | Cc1cc2nn(-c3ccccc3)nc2cc1NC(=O)c1cccs1 | 0.3% | -1 | 6% | -35%

Shown with values under each structure: entries from further up
Value order: Rango-impB inh, GLA inh pH 4.5, Rango dissoc inh, miR-21 reporter
68) CCOc1ccc(C(=O)Nc2cc(S(=O)(=O)Nc3ccccc3Cl)ccc2N2CCOCC2)cc1
    3.6%, -4, 13%, -5%
69) CC1CC(C)CN(C(=O)c2ccc(N3CC4CC(C3)c3cccc(=O)n3C4)c([N+](=O)[O-])c2)C1 (configuration not stated)
    -1.6%, -6, -6%, -16%
70) CCOC(=O)CSc1[nH]c2cc(OC)ccc2c1[N+](=O)[O-]
    ?, 5, -7%, -1%
